ALR inh – inhibitors of human sulfhydryl oxidase ALR. P55789. purified ALR, DTT oxidation, H2O2 HRP-luminol luminescence. inhibition, % (test concentration not listed). hit rate 3.8% among 290,000. AID 485317;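 active means mean and each replicate at 75% or more; inconclusive means only one of the two met; inactive means neither met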;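 further: stock transfer was 7.5 nL into about 7.5 µL; 0% = neutral wells and 100% = wells with inactivated enzyme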
Target sequence (P55789 whole entry, looked up): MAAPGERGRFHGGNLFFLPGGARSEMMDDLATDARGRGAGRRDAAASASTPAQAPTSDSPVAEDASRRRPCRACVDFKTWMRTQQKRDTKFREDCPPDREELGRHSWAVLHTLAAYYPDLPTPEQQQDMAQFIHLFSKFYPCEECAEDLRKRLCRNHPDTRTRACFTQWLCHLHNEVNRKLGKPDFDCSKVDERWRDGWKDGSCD
MLL AF4-AF9 inh – MLL-AF4/AF9 protein interaction inhibition. P42568. AlphaScreen, biotin-AF4 peptide binding to FLAG-AF9. inhibition, % at 10 µM. hit rate 0.47% among 350,000. AID 651704;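 active means every replicate reaching a set inhibition limit, whatever the replicate mean, cut at about 25% in these data; inconclusive means mean inhibition reaches that limit but some replicates miss it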;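 further: 0% = plate neutral control median and 100% = total signal loss; the record names both 10 and 1 µM as test concentration; the first replicate is given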
Target sequence (P42568 whole entry, looked up): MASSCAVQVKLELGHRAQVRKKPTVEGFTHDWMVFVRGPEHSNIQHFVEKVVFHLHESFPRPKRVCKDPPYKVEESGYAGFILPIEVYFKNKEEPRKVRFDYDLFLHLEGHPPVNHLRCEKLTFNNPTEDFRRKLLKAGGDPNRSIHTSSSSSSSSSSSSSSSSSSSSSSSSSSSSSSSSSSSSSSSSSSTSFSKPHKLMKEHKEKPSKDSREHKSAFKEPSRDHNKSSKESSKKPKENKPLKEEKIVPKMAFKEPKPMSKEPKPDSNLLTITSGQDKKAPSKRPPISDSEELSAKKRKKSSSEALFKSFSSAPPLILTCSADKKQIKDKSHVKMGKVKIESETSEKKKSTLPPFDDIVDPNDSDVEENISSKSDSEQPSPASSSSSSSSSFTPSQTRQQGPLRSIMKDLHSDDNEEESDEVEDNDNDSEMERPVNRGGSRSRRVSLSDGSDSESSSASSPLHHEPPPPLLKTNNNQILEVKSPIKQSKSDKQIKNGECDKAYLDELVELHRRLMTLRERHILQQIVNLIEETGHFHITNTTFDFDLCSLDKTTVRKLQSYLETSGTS
Beta cell apopt – blocks beta cell apoptosis | INS-1E cytokine-induced death, ATP luminescence, 48 h; percent of positive-control rescue, neutral wells zero | protection from apoptosis, % (no concentration beside the values) | hit rate 0.8% among 300,000 | AID 435005;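 active means all replicates at 75% or more, or half of them and the mean; inconclusive means half reach 75% but not the mean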;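 further: 0% = cytokine-treated negative control wells and 100% = positive control rescue; higher means more ATP so stronger rescue from cytokine killing; wells of about 40 µL received 100 nL stock; the first replicate is given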
T cruzi inh – blocks replication of Trypanosoma cruzi | T. cruzi beta-gal in NIH3T3, luminescence, 90 h | inhibition, % (no concentration beside the values) | hit rate 1.4% among 300,000 | AID 1885;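 active means mean inhibition across valid replicates above about 55%, limit read from the data; inconclusive means mean below that limit but half or more replicates reach it; inactive means mean below it, under half of replicates reach it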;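 further: signal also drops with host cell toxicity which is not excluded here; 0% = plate median of DMSO wells and 100% = zero luminescence signal; higher percent means less beta-gal luminescence so fewer parasites; stock transfer was 50 nL into about 50 µL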
rRNA inh HTS – selective bacterial rRNA inhibition in E. coli; AID 720706; GFP signal change (wild-type ribosome), % (concentration not given with the values); E. coli WT GFP vs humanized-ribosome RFP mutants, fluorescence, 24 h; stronger effect = lower value; DMSO median 0, no signal -100; hit rate 1.6% among 350,000;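 active means significant combined selectivity score with lowered wild-type GFP, culture density cut under 30%, mutant RFP and density less affected; inactive means any of these conditions unmet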; further: one replicate is shown; some compounds called inactive have numbers as strong as hits
FGF22 binding – FGF22 (human) thermal shift binding; Q9HCT0; calls only at 9.99 µM; recombinant FGF22 thermal shift, SYPRO orange fluorescence; percent of sucrose octasulfate shift, DMSO zero; hit rate 1.5% among 340,000;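 active means melting point raised past a set limit in the mean and every replicate; inconclusive means no clear call; three in four hits are not shown here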
Target sequence (Q9HCT0 whole entry, looked up): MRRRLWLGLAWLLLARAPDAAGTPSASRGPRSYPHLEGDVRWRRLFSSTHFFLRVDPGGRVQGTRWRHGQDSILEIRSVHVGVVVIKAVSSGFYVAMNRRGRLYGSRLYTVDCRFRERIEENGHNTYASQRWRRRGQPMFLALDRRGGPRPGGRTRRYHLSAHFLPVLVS
Calb FLC – C. albicans growth modulation with fluconazole; C. albicans CaCi-2 (fluconazole-resistant clinical isolate) + fluconazole, Alamar Blue growth, 48 h; growth inhibition, % (test concentration not listed); hit rate 0.57% among 300,000; AID 1979;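 active means most replicates above 75%; inconclusive means exactly half above 75%; inactive means most below 75%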;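 further: all wells also contain fluconazole at 8 µg/ml as a sub-toxic cotreatment; 0% = median of DMSO wells and 100% = median of geldanamycin control wells; wells of about 8 µL received 7.5 nL stock; the first replicate is given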
RanGTP-Impb inh – inhibitors of RanGTP-importin-beta interaction, primary screen, biochemical, FRET, CFP-Ran, YFP-importin-beta, homogeneous. cell-free CFP-Ran/YFP-importin-beta FRET ratio. inhibition, % (test concentration not listed). hit rate 1.1% among 300,000. AID 2216;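 active means most replicates above 15%; inconclusive means exactly half above 15%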;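 further: 0% = DMSO wells and 100% = Ran loaded with GDP instead of GTP; wells of about 40 µL received 100 nL stock; the first replicate is given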
rRNA inh HTS OD600 – second read-out of rRNA inh HTS, no call of its own (marks repeat the call); OD600 change, %; measured here: OD600 growth;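 optical density of the mix in the first replicate; 0 = DMSO median and -100 = no signal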
rRNA inh HTS RFP – recorded beside rRNA inh HTS, whose call it bears; RFP signal change, %; measured here: RFP humanized mutant strains;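 first replicate; 0 = DMSO median and -100 = no signal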
An asterisk follows results filed as active; i = inactive; ? = inconclusive; nt = not tested or not shown; & = joins results of further samples; ! = not active in a repeat. Not all compounds are listed (hit frequency here may not be typical).

| # | compound | ALR inh | MLL AF4-AF9 inh | Beta cell apopt | T cruzi inh | rRNA inh HTS |
| --- | --- | --- | --- | --- | --- | --- |
| 1 | COc1ccc(S(=O)(=O)Nc2nnc(CC(C)C)s2)cc1 | -1 | nt | -2 | 8 | nt |
| 2 | CCC12CCCN3CCc4c(n(c5ccccc45)C(O)(C(=O)OC)C1)C32 (stereo not given) | -52 | 3.2 | nt | -17 | 11 |
| 3 | OCC(O)CN1CCN(c2ccccc2)CC1 (stereo not given) | ? | -3.7 | -5 | -16 | 7 |
| 4 | CC(=O)O[C@@]12CO[C@@H]1C[C@H](O)[C@@]1(C)C(=O)[C@H](O)C3=C(C)[C@@H](OC(=O)[C@H](O)[C@@H](NC(=O)OC(C)(C)C)c4ccccc4)C[C@](O)([C@@H](OC(=O)c4ccccc4)[C@H]21)C3(C)C | -3 | nt | nt | 56* | nt |
| 5 | CCCN(CCC)C(=O)C(CCC(=O)O)NC(=O)c1ccccc1 (stereo not given) | -1 | 1.5 | 1&2 | -8 | 5 |
| 6 | CN(C)CCOC(=O)C(c1ccccc1)C1(O)CCCC1 (stereo not given) | 9 | 1.6 | 0 | 0 | nt |
| 7 | Nc1cc(=O)[nH]c(N)n1 | 1 | -3.4 | -10 | nt | -13* |
| 8 | COc1cc(NC(=O)c2cc(C3CC3)on2)c(OC)cc1Cl | -22 | 0.5 | 4 | -7 | 14 |
| 9 | O=C1c2c(O)cccc2C(C2OC(CO)[C@@H](O)[C@H](O)[C@H]2O)c2cc(CO)cc(O)c21 (stereo not given in full) | -7 | 11 | -13 | nt | 2 |
| 10 | O=C(O)CCCCCCCC(=O)O | -4 | -1.8 | 2 | -10 | nt |
| 11 | CCOc1ccc(NC(=S)N2CCC(C(O)(c3ccccc3)c3ccccc3)CC2)cc1 | -7 | -3.6 | -8 | -36 | -9 |
| 12 | CN1CCN(CCCN2c3ccccc3Sc3ccc(S(=O)(=O)N(C)C)cc32)CC1 | 96* | 24 | -2 | nt | nt |

| # | rRNA inh HTS OD600 | rRNA inh HTS RFP | FGF22 binding | Calb FLC | RanGTP-Impb inh |
| --- | --- | --- | --- | --- | --- |
| 1 | nt | nt | nt | 35 | -1.8 |
| 2 | 10 | 13 | i | 16 | 114* |
| 3 | 4 | -1.6 | i | nt | 6.9 |
| 4 | nt | nt | nt | 6 | 0.9 |
| 5 | 7 | -0.7 | i | nt | -1.0 |
| 6 | nt | nt | i | nt | 0.2 |
| 7 | 3.9* | 4.1* | i | nt | nt |
| 8 | 9 | -0.9 | i | -7 | ? |
| 9 | 2 | 9.8 | i | nt | nt |
| 10 | nt | nt | i | 3 | -1.9 |
| 11 | -23 | 10 | i | 12 | 9.4 |
| 12 | nt | nt | i | nt | nt |

(more compounds)
| # | compound | ALR inh | MLL AF4-AF9 inh | Beta cell apopt | T cruzi inh | rRNA inh HTS |
| --- | --- | --- | --- | --- | --- | --- |
| 13 | Cc1oncc1C(=O)Nc1ccc(C(F)(F)F)cc1 | -22 | -3.6 | nt | 8 | nt |
| 14 | CN1CCC(=C2c3ccccc3CC(=O)c3sccc32)CC1 | -16&-6 | 5.5&-2.1&-0.5&5.2 | -9&-7 | 4 | 15 |
| 15 | CCCCOC(=O)c1ccc(N)cc1 | -9 | -2.4 | 9 | -9 | 2 |
| 16 | COc1cc(C(=O)NCCCCCC(=O)O)cc(OC)c1OC | -9 | 1.0 | -1 | 0 | 3 |
| 17 | CCC(Cc1c(I)cc(I)c(N)c1I)C(=O)O (stereo not given) | 9 | -1.7 | -5 | nt | -35 |
| 18 | CC[C@]12CCCN3CCc4c(n(c5ccccc45)[C@@](O)(C(=O)OC)C1)[C@@H]32 | -6 | -1.0 | -4 | nt | 5 |
| 19 | Oc1cc2c(cc1O)C1c3ccc(O)c(O)c3OCC1(O)C2 (stereo not given) | 100* | 40* | -13 | nt | -18 |
| 20 | Cc1ccsc1/C=C/C1=NCCCN1C | nt | -3.2&1.2&-13 | 1 | 4 | 12 |
| 21 | C#C[C@]1(O)CC[C@H]2[C@@H]3CCC4=CC(=O)CC[C@@H]4[C@H]3CC[C@@]21CC | -5 | -2.0&-5.8 | -1&0 | -17 | nt |
| 22 | CC1(C)Oc2ccc(C#N)cc2[C@@H](N2CCCC2=O)[C@@H]1O | nt | 6.1 | -10 | -5 | 1 |
| 23 | CCOC(=O)Nc1ccc2c(c1)N(C(=O)CCN1CCOCC1)c1ccccc1S2 | 11 | -6.0&-3.2 | 0 | 68*! | -22 |
| 24 | CN=C(N)NC(=O)Nc1c(C)cccc1C | -6 | nt | -6 | 36 | 16 |

| # | rRNA inh HTS OD600 | rRNA inh HTS RFP | FGF22 binding | Calb FLC | RanGTP-Impb inh |
| --- | --- | --- | --- | --- | --- |
| 13 | nt | nt | i | nt | -1.6 |
| 14 | -4 | 24 | i | nt | -5.8 |
| 15 | -4 | -0.3 | i | -5 | -0.7 |
| 16 | 3 | -2.1 | i | 8 | 0.5 |
| 17 | -68 | -1.1 | i | nt | nt |
| 18 | 7 | 6.1 | i | nt | nt |
| 19 | 12 | 26 | i | nt | nt |
| 20 | 14 | -1.8 | i | -11 | -8.3 |
| 21 | nt | nt | i | nt | -3.3 |
| 22 | 14 | 3.8 | i | 0 | 1.7 |
| 23 | -20 | -3.4 | i | 20 | 7.4&0.9 |
| 24 | 6 | -0.4 | i | 18 | -3.9 |

An excerpt from above in order of molecular weight, ascending:
| # | compound | ALR inh | MLL AF4-AF9 inh | Beta cell apopt | T cruzi inh | rRNA inh HTS |
| --- | --- | --- | --- | --- | --- | --- |
| 10 | O=C(O)CCCCCCCC(=O)O | -4 | -1.8 | 2 | -10 | nt |
| 15 | CCCCOC(=O)c1ccc(N)cc1 | -9 | -2.4 | 9 | -9 | 2 |
| 24 | CN=C(N)NC(=O)Nc1c(C)cccc1C | -6 | nt | -6 | 36 | 16 |
| 13 | Cc1oncc1C(=O)Nc1ccc(C(F)(F)F)cc1 | -22 | -3.6 | nt | 8 | nt |
| 22 | CC1(C)Oc2ccc(C#N)cc2[C@@H](N2CCCC2=O)[C@@H]1O | nt | 6.1 | -10 | -5 | 1 |
| 19 | Oc1cc2c(cc1O)C1c3ccc(O)c(O)c3OCC1(O)C2 (stereo not given) | 100* | 40* | -13 | nt | -18 |
| 14 | CN1CCC(=C2c3ccccc3CC(=O)c3sccc32)CC1 | -16&-6 | 5.5&-2.1&-0.5&5.2 | -9&-7 | 4 | 15 |
| 21 | C#C[C@]1(O)CC[C@H]2[C@@H]3CCC4=CC(=O)CC[C@@H]4[C@H]3CC[C@@]21CC | -5 | -2.0&-5.8 | -1&0 | -17 | nt |
| 18 | CC[C@]12CCCN3CCc4c(n(c5ccccc45)[C@@](O)(C(=O)OC)C1)[C@@H]32 | -6 | -1.0 | -4 | nt | 5 |
| 23 | CCOC(=O)Nc1ccc2c(c1)N(C(=O)CCN1CCOCC1)c1ccccc1S2 | 11 | -6.0&-3.2 | 0 | 68*! | -22 |
| 12 | CN1CCN(CCCN2c3ccccc3Sc3ccc(S(=O)(=O)N(C)C)cc32)CC1 | 96* | 24 | -2 | nt | nt |
| 17 | CCC(Cc1c(I)cc(I)c(N)c1I)C(=O)O (stereo not given) | 9 | -1.7 | -5 | nt | -35 |

| # | rRNA inh HTS OD600 | rRNA inh HTS RFP | FGF22 binding | Calb FLC | RanGTP-Impb inh |
| --- | --- | --- | --- | --- | --- |
| 10 | nt | nt | i | 3 | -1.9 |
| 15 | -4 | -0.3 | i | -5 | -0.7 |
| 24 | 6 | -0.4 | i | 18 | -3.9 |
| 13 | nt | nt | i | nt | -1.6 |
| 22 | 14 | 3.8 | i | 0 | 1.7 |
| 19 | 12 | 26 | i | nt | nt |
| 14 | -4 | 24 | i | nt | -5.8 |
| 21 | nt | nt | i | nt | -3.3 |
| 18 | 7 | 6.1 | i | nt | nt |
| 23 | -20 | -3.4 | i | 20 | 7.4&0.9 |
| 12 | nt | nt | i | nt | nt |
| 17 | -68 | -1.1 | i | nt | nt |

Other structures follow:
| # | compound | ALR inh | MLL AF4-AF9 inh | Beta cell apopt | T cruzi inh | rRNA inh HTS |
| --- | --- | --- | --- | --- | --- | --- |
| 25 | Nc1ncnc(Nc2ccccc2)n1 | -8 | -2.7 | nt | 10 | nt |
| 26 | O=C(c1ccccc1)c1ccc2n1CCC2C(=O)O (stereo not given) | nt | 8.3 | 9 | 4 | nt |
| 27 | CC1CCc2c(N3CCC(O)CC3)c(F)cc3c(=O)c(C(=O)O)cn1c23 (stereo not given) | -2 | -3.5 | -5 | nt | nt |
| 28 | COc1cc2c(c(OC)c1OC)-c1c(cc(OC)c(OC)c1OC)C[C@H](C)[C@H](C)C2 | -17 | nt | 3 | 0 | nt |
| 29 | CN(CCOc1ccc(NS(C)(=O)=O)cc1)CCc1ccc(NS(C)(=O)=O)cc1 | -2 | nt | -6 | 31 | nt |
| 30 | O=C1CCc2cc(OCCCCc3nnnn3C3CCCCC3)ccc2N1 | -3 | 5.1 | 5 | -3 | nt |
| 31 | CC(C)(C(=O)c1cccnc1)c1cccnc1 | 3 | -5.6 | -11 | -26 | -13 |
| 32 | CCCc1cc(C(N)=S)ccn1 | -19 | -4.5 | -5 | 10 | 5 |
| 33 | C/C=C(/C)C(=O)O[C@@H]1c2cc3c(c4c2[C@@]2(CO4)C(=O)C(OC)=C(OC)C=C2C[C@@H](C)[C@H]1C)OCO3 | 40 | 5.4 | -4 | 6 | -7 |
| 34 | CCOC(=O)Nc1ccc(NCc2ccc(F)cc2)nc1N | -68 | 3.6 | 6 | nt | nt |
| 35 | CCN(CC)CCOC(=O)C(c1ccccc1)c1ccccc1 | -9 | -10 | -3 | 1 | 6 |
| 36 | COc1c(O)cc2c(c1O)[C@@H]1O[C@H](CO)[C@@H](O)[C@H](O)[C@H]1OC2=O | 23 | -1.2 | -7 | -2 | 8 |
| 37 | CCN(CC)S(=O)(=O)c1ccc(C(=O)O)cc1 | -12 | 0.0 | -2 | -1 | 20 |
| 38 | COc1ccc(Sc2ccc(NC(=O)c3ccccc3Cl)cc2C#N)cc1 | 0 | nt | nt | 20 | nt |

| # | rRNA inh HTS OD600 | rRNA inh HTS RFP | FGF22 binding | Calb FLC | RanGTP-Impb inh |
| --- | --- | --- | --- | --- | --- |
| 25 | nt | nt | i | -2 | -5.9 |
| 26 | nt | nt | i | nt | 4.2 |
| 27 | nt | nt | i | nt | nt |
| 28 | nt | nt | nt | 4 | 1.9 |
| 29 | nt | nt | nt | nt | -0.3 |
| 30 | nt | nt | i | nt | 5.3 |
| 31 | -6 | 5.9 | i | nt | -1.5 |
| 32 | 16 | -2.4 | i | -23 | 0.2 |
| 33 | -6 | 7.0 | i | 5 | 3.8 |
| 34 | nt | nt | i | nt | nt |
| 35 | 11 | -0.4 | i | nt | -5.8 |
| 36 | 6 | -0.5 | i | 18 | -1.5 |
| 37 | 11 | -0.7 | i | 19 | 3.1 |
| 38 | nt | nt | nt | 3 | -3.2 |

Source: PubChem BioAssay (Broad Institute)
